Assay outcomes deposited in PubChem by ICCB-Longwood Screening Facility, Harvard Medical School.
MgrA DNA FP: S. aureus MgrA activity modulators, primary screen, biochemical, S. aureus Newman, fluorescence polarization. inhibition, %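 (about 10 µg/mL by stock and volumes)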. hit rate 0.13% among 84,000. MgrA-DNA binding;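 active = above 50% in either of two replicates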;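 also: 0% = protein plus DNA without compound and 100% = DNA alone without protein; higher means less MgrA bound to DNA so lower polarization; one replicate is shown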
Sa helicase inh: inhibitors of S. aureus replicative helicase, primary screen, biochemical, fluorescence unwinding readout. replicative DNA helicase (DnaC/DnaB), Staphylococcus aureus. purified S. aureus helicase, fluorescence unwinding assay; about half of the hits fall short of the stated cut. inhibition, %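 (tested at about 80 µM)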. hit rate 0.05% among 120,000. AID 485395, 2010;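 active = both duplicates at 50% or more, or one of them with a favoured structure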;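 also: 0% = mean of negative control wells and 100% = mean of positive control wells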
Active calls of the source: *; x = not tested or not shown. The list is partial (hit frequency here may not be typical).

compound,MgrA DNA FP,Sa helicase inh
Cc1c(NC(=O)C2Cc3ccccc3CN2S(=O)(=O)c2ccccc2F)c(=O)n(-c2ccccc2)n1C (stereo unspecified),x,-6.0
COc1ccc(C(=O)Cn2ccnc2C(=O)NCCc2ccc(Cl)cc2)cc1,0.0,13.0
O=c1[nH]c2ccccc2c(O)c1-c1nc2ccccc2s1,9.4,-27.0
O=C(COc1ccccc1Cl)c1ccc[nH]1,x,-90.0
Cc1c2c(=O)[nH]ncc2c(-c2ccccc2)n1CCSCc1c(F)cccc1Cl,-1.1,x
Cc1ccc(SCc2[nH]nc3c2C(C)C(C#N)=C(N)O3)cc1 (stereo unspecified),x,6.0
CC(C)CC(=O)N[C@H](C(=O)N[C@H](C(=O)N[C@@H](CC(C)C)[C@@H](O)CC(=O)N[C@@H](C)C(=O)N[C@@H](CC(C)C)[C@@H](O)CC(=O)O)C(C)C)C(C)C,0.0,x
OCCNCC1CC2C=CC1C2 (stereo unspecified),1.4,-13.0
CN(C)S(=O)(=O)c1ccc(-c2cc(C(F)(F)F)on2)s1,0.2,x
CCOC(=O)C1=C(CC)Nc2ccccc2N=C1NC(=O)C1CC(=O)N(CCc2ccccc2)C1 (stereo unspecified),x,-6.0
NC(=O)c1nc(Cl)c(Cl)c(Cl)c1Cl,x,14.0
COc1ccccc1OCC(=O)Nc1ccc(-c2nnc(-c3ccccc3)o2)cc1,x,6.0
Cc1cc2nc(NCc3ccccn3)c3ccccc3n2n1,x,10.0
CCOC(=O)c1ccc(NC(=O)c2ccc(S(=O)(=O)N3CCOCC3)cc2)s1,x,14.0
CCCCc1nc2n[nH]c(N)c2c2c1CCC2,x,-26.0
CC(=O)c1nnn(-c2c(Cl)cc(Cl)cc2Cl)c1C,-0.9,x
Cc1ccc(-n2c(C)cc(C(=O)CSc3nc(N)cc(N)n3)c2C)cc1C,x,5.0
c1ccc2c(c1)OCCCO2,x,-17.0
Cc1ccc2nsnc2c1NC(=O)C(C)(C)C,-1.8,17.0
CC(=O)N/C(=C/c1ccoc1)C(=O)O,0.6,x
Cc1nn2c(c1-c1cccc(Cl)c1)NCN(Cc1ccc(Cl)cc1)C2,9.7,5.0
CNc1ccccc1-c1nc2ccccc2o1,-4.2,6.0
CC(=O)N1CC(C)Oc2ccc(S(=O)(=O)N(CC(C)C)CC(C)C)cc21 (stereo unspecified),x,-28.0
N#CC(c1ccco1)N1CCN(C(C#N)c2ccco2)CC1 (stereo unspecified),x,-10.0
CCCn1c2ccc(F)cc2c2nc3n(c(=O)c21)CCS3,-3.8,10.0

(list continues)
compound,MgrA DNA FP,Sa helicase inh
Cc1cccc2c3c4n(c12)CC1COC4(CCC3)O1 (stereo unspecified),x,13.0
COc1ccc(C2CCCCCN2C(=O)Cn2nc(C(N)=O)c3ccccc3c2=O)cc1 (stereo unspecified),x,-2.0
COC(=O)c1nnn(-c2nonc2N)c1CN1C(=O)c2ccccc2C1=O,0.5,5.0
O=C(c1ccc2c(c1)CCN2S(=O)(=O)c1ccccc1)N1CCOCC1,x,24.0
COc1ccccc1NS(=O)(=O)c1cccs1,x,3.0
O=c1[nH]ncc(N2CCCC2)c1Br,x,14.0
COC(=O)c1c(NC(=O)c2cc3ccccc3o2)sc2c1CCCC2,x,-16.0
C=CCNC(=O)C1=CC(c2ccc(F)cc2)=NS(=O)(=O)N1C,x,-12.0
O=C1C2CC=CCC2C(=O)N1Cc1nnc(-c2ccc(Cl)cc2)o1 (stereo unspecified),x,-5.0
Cc1oc(S(=O)(=O)N(C)C)cc1C(=O)Nc1ccc(Cl)cc1,-2.2,x
COc1ccccc1C(=O)Nc1ccc(-c2cn3ccccc3n2)cc1,1.1,15.0
COc1ccc(-c2noc(-c3ccccc3C(=O)N3CCCCC3)n2)cc1OC,1.2,13.0
N/C(CN1CCSCC1)=N\OC(=O)c1ccccc1F,x,-5.0
O=P1(N2CCN(c3ccc(F)c(Cl)c3)CC2)COc2ccccc2OC1,x,18.0
N#C[C@@H]1O[C@H](COC(=O)c2ccccc2)[C@@H](OC(=O)c2ccccc2)[C@H]1OC(=O)c1ccccc1,-1.0,x
COC(=O)c1c(C)nn(-c2ccc(OC(F)(F)F)cc2)c1-c1snnc1C,-0.9,x
CC(C)C(=O)n1c2ccc(F)cc2c2nc3ccccc3nc21,-1.9,x
CCc1nnc2c3cnn(-c4ccccc4)c3nc(C)n12,x,32.0
COc1ccc(C(=O)Cc2c(O)c3ccccc3oc2=O)cc1,-0.3,x
CC(=O)NC(C)C(=O)Nc1cccc(C)c1C (stereo unspecified),x,-8.0
c1ccc(CCNCc2cn[nH]c2-c2cccs2)cc1,1.5,-16.0
N#Cc1ccc(C2Oc3ccccc3C3CC(c4ccc5c(c4)OCCO5)=NN32)cc1 (stereo unspecified),x,-12.0
CC(CN(C)Cc1ccccc1)OC(=O)c1cccs1 (stereo unspecified),x,6.0
COc1cc(OC)cc(C(=O)OCC(=O)c2ccc(O)cc2O)c1,x,-3.0
O=S(=O)(Nc1ccc2c(c1)OCCO2)c1csc(-c2cc(C(F)(F)F)on2)c1,-0.3,x

(next part)
compound,MgrA DNA FP,Sa helicase inh
CCOc1ccc(CN(C)C(=O)c2cc(S(=O)(=O)N3CCOCC3)ccc2C)cc1,x,5.0
NCCC(Cc1ccccc1)c1ccc2c(c1)OCO2 (stereo unspecified),-2.9,3.0
Nc1nc2ccccc2n1CCCOc1ccc(F)cc1,x,-19.0
O=C(O)CCS(=O)(=O)c1ccccc1,-0.9,12.0
Cc1cc2c(cc1S(=O)(=O)N(C)Cc1ccccc1)OCCN2C,0.8,1.0
CC(=O)Nc1ccc(O)c(C(=O)CC(=O)c2ccccc2)c1,-0.2,x
O=c1c2ccccc2nc2sc3ccccc3n12,0.0,29.0
CC1=C(C)C(=O)C(NCc2ccccn2)=CC1=O,x,1.0
C=CCSc1nnc(-c2c[nH]c3ccccc23)n1CC,x,1.0
O=C(Nc1ccc(-n2ccnc2P(=O)(O)c2ccccc2)cc1)c1ccccc1Cl,x,3.0
CSc1ncccc1C(=O)Nc1ccccc1C,0.0,-1.0
COc1ccc(C(N)=O)c(O)c1,x,-10.0
COC(=O)C1=NNC2C(=O)N(C3CCCCC3)C(=O)C12 (stereo unspecified),0.4,10.0
Clc1ccc(Oc2nc3ccccc3[nH]2)c(Cl)c1,x,-15.0
C=CCN1C(=O)/C(=C\c2ccccc2F)S/C1=N\c1nnc(C)s1,-1.5,3.0
O=S(=O)(c1cc(Cl)sc1Cl)n1cccc1,-1.9,x
COC(=O)c1ccc(N=C2SC(C(=O)Nc3ccc(OC)cc3)CC(=O)N2C)cc1 (stereo unspecified),0.2,x
Cc1ccc2cc(CN(C(=O)c3cnccn3)C3CCCCC3)c(=O)[nH]c2c1,-1.1,10.0
c1ccc(CN2CCCN(Cc3ccccc3)C2c2ccncc2)cc1,1.2,-17.0
COC(=O)c1cccc(NC(=O)C2=NNC(=O)CC2)c1,-0.7,x
O=C(Cc1ccccc1)Nc1cccc(-c2ccc(N3CCCC3)nn2)c1,x,7.0
N#Cc1ccc(NC(=O)CCC(=O)O)cc1,-2.0,-4.0
N#Cc1nc(N2CCCC2)nc(N2CCCC2)n1,x,5.0
CSc1nnc(NC(=O)C23CC4CC(CC(C4)C2)C3)s1,x,11.0
COC(=O)C1=C(C)NC(=S)NC1/C=C/c1ccccc1 (stereo unspecified),1.7,16.0

(list continues)
compound,MgrA DNA FP,Sa helicase inh
CCc1ccc(CN2CCC(O)CC2)cc1,-0.3,-4.0
Cc1ccc(C(=O)N(Cc2ccccc2)C(C)C)cc1,-0.9,x
O=C(CN1C(=O)c2ccccc2C1=O)Nc1ncc(S(=O)(=O)c2ccc([N+](=O)[O-])cc2)s1,2.9,x
Fc1cccc(CSc2ncnc3nc[nH]c23)c1,x,7.0
CC(C)(C)C(=O)CSC1=CC(=O)CC(c2ccccc2)S1 (stereo unspecified),-1.4,x
O=C(Nc1ccc(-n2nncc2-c2ccccc2)cc1)c1cccs1,x,7.0
CCOC(=O)Cn1c(=O)c(C(N)=S)cn(C(C)C)c1=O,0.3,x
O=C(O)/C=C/C(=O)Nc1ccc2c(c1)OCCO2,-4.3,x
COc1ccc(C2N(C(=O)c3ccccc3)CCCN2S(=O)(=O)c2ccc(C)cc2)cc1 (stereo unspecified),0.3,4.0
O=S(=O)(NCCN1CCOCC1)c1ccc(Cc2ccc(S(=O)(=O)NCCN3CCOCC3)cc2)cc1,x,12.0
COC(=O)c1ccc(C(=O)NN)cc1,-0.6,x
O=S(=O)(CCc1nc2ccccc2o1)c1ccc2ccccc2c1,x,-30.0
CCCOc1c(-c2ccc3ccccc3n2)cnc2ccccc12,-2.5,16.0
Cc1cc(C(=O)OCc2ccccc2)c(C)o1,-0.8,-14.0
O=C(NCc1ccccc1)c1ccc(CN2CCC(Cc3ccccc3)CC2)cc1,1.3,10.0
C/C(=N\Nc1ccccc1)C1Cc2ccccc2C(=O)O1 (stereo unspecified),x,13.0
O=C(Nc1nc2ccccc2c(=O)s1)c1ccco1,-2.0,x
Nc1ncnc2c1ncn2C1C=CC(CO)O1 (stereo unspecified),-2.8,11.0
Cc1ccc(-c2cc(Cc3cccnc3)c(=O)[nH]n2)cc1,x,5.0
N#C/C(=C\Nc1ccc(Cl)cn1)S(=O)(=O)c1ccccn1,1.3,x
O=S(=O)(CCn1cccc1)CCn1cccc1,-0.6,12.0
CCC1Nc2ccccc2NC1=O (stereo unspecified),-2.0,6.0
Cn1cc(NC(=O)NCCN2CCCC2)c2ccccc2c1=O,x,-1.0
O=C(Cn1nnc2ccccc21)OCC(=O)c1ccc(Cl)cc1,0.5,11.0
COc1ccc(C(=O)NCc2nnc(SC)n2CCc2ccccc2)cc1,x,-9.0

Following part.
compound,MgrA DNA FP,Sa helicase inh
Cc1ccc(C(=O)OC2=CC(=O)c3ccccc3C2=O)cc1,22.4,x
CCc1cccc(NC(=O)CCCN2C(=O)COc3ccc(C)cc32)c1,-0.2,4.0
COc1ccc(CCNC(=O)C(Cc2ccccc2)n2cccc2)cc1OC (stereo unspecified),1.1,16.0
CCCc1cc(=O)[nH]c(SCC(=O)N(C)c2ccccc2)n1,x,-5.0
COC(=O)N/N=C/c1cn(CCOc2ccc(OC)cc2)c2ccccc12,x,-30.0
CC(NC(=O)c1cccc(S(=O)(=O)N(C)C)c1)C1CC2CCC1C2 (stereo unspecified),2.5,-1.0
CS(=O)(=NC(=O)Nc1ccccc1)c1ccccc1 (stereo unspecified),-1.0,x
O=C(CSc1nnc(-c2ccc(Cl)cc2)n1Cc1ccccc1)NC(=O)NCc1ccco1,x,9.0
COCCn1nnnc1C(c1ccc2ncccc2c1)N1CCc2ccccc21 (stereo unspecified),-23.8,8.0
COC(=O)c1sc(N2CCCC2)c(C#N)c1N,-0.9,x
O=C(NCc1ccco1)c1ccc(-n2nncc2-c2ccccc2)cc1,x,8.0
CC(Sc1nnc(-c2ccncc2)n1N)C(=O)c1ccc(F)c(F)c1 (stereo unspecified),x,7.0
Cc1ccc2oc(=O)c3cnn(CC(=O)n4c(C)cc5ccccc54)c3c2c1,-1.2,17.0
CC1CCN(C(=O)c2ccc3nc(SCc4ccc(F)cc4)n(C)c3c2)CC1,-2.0,1.0
CN1C(=O)/C(=N\N2C(=O)CSC2=S)c2ccccc21,14.4,27.0
CCCN(CC1CC1)C(=O)CSc1n[nH]c(=O)n1CC,x,7.0
O=C(c1c[nH]c2ccccc12)N1CCCC1,-1.1,x
Cc1c(CN2CCN(Cc3ccccc3)CC2)sc2ccccc12,-1.9,x
Cc1ccccc1OCC(=O)OCC(=O)NC1CCCCC1,x,-1.0
O=S(=O)(c1cc(C(F)(F)F)ccc1Cl)N1CCN(Cn2c(CO)nc3ccccc32)CC1,x,6.0
O=C(N/C(=C\c1ccc(-c2ccc(Cl)cc2Cl)o1)C(=O)N1CCCC1)c1ccccc1,1.4,-3.0
COc1ccc(CC(=O)O)c(OC)c1,x,-2.0
N#Cc1ccc(OC(=O)c2ccc(-c3cccc(C(F)(F)F)c3)o2)cc1,x,-5.0
NC(=O)CN(c1ccccc1)C1SC(=O)NC1=O (stereo unspecified),-0.5,8.0
O=C(CN1CCNCC1)N1CCCCC1,x,3.0
CCN(CC)C(=O)NCc1noc2ccccc12,0.6,2.0
CC(CC(=O)O)C(=O)c1ccc(Cl)cc1 (stereo unspecified),-1.9,-6.0

Complete entries, looked up by structure. Values in the order: MgrA DNA FP	Sa helicase inh
Record of CC(Sc1nnc(-c2ccncc2)n1N)C(=O)c1ccc(F)c(F)c1 (stereo unspecified) = x	7.0
Record of O=C(CSc1nnc(-c2ccc(Cl)cc2)n1Cc1ccccc1)NC(=O)NCc1ccco1 = x	9.0
